Screens from PubChem.
Ecoli rRNA inh: inhibits bacterial ribosomal RNA function over humanized ribosomes; E. coli WT GFP vs humanized-ribosome RFP mutants, fluorescence, 24 h; hits give low values; DMSO median 0, no signal -100; GFP signal change (wild-type ribosome), % (concentration not given with the values); 350,000 tested, 1.6% active;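 active means significant combined selectivity score with lowered wild-type GFP, culture density cut under 30%, mutant RFP and density less affected; inactive means any of these conditions unmet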; further: one replicate is shown; some compounds called inactive have numbers as strong as hits
B2AR ag: activates human beta-2 adrenergic receptor causing internalization; P07550; Am2.2-beta2AR cells, FAP receptor internalization, flow cytometry; reference of the scale not given here; response, % (test concentration not listed); 340,000 tested, 0.43% active;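 active means response above a set limit, near 3 SD of response in nonfluorescent compounds, cut at about 42% in these data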;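 further: stock transfer was 100 nL into about 11 µL; a reference agonist was the positive control; negative values mostly stem from fluorescent compounds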
Target sequence (P07550 whole entry, looked up): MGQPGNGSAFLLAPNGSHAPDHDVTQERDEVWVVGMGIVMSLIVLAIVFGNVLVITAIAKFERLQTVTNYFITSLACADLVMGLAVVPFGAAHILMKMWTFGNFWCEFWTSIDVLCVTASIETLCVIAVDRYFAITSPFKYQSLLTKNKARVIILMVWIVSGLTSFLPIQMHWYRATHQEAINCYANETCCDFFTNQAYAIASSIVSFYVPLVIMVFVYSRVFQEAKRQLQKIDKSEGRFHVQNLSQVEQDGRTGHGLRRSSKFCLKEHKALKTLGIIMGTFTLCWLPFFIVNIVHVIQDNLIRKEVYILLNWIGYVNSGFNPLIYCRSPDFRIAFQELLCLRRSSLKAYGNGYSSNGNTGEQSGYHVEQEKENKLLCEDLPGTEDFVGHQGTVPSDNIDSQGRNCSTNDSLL
Ecoli rRNA inh OD600: also measured in Ecoli rRNA inh; calls as there; OD600 change, %; measured here: OD600 growth;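 optical density of the mix in the first replicate; 0 = DMSO median and -100 = no signal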
Ecoli rRNA inh RFP: further read-out of Ecoli rRNA inh, marked with its call; RFP signal change, %; measured here: RFP humanized mutant strains;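 first replicate; 0 = DMSO median and -100 = no signal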
Starred values were filed as active, the others as inactive; i = inactive. Only part of the results is shown; the hit share may differ from the screen's.

SMILES	Ecoli rRNA inh	Ecoli rRNA inh OD600	Ecoli rRNA inh RFP	B2AR ag
CC(C)(C)OC(=O)N1O[C@H]2CC1[C@@H]1[C@@H]2N=NN1CCc1ccncc1	11	1	0.8	0
CC1CN(C2CCCCC2)C(=S)N(c2ccccc2)C1=O (stereo unspecified)	4	1	-3.2	-5
O=C(Cc1ccc(Cl)cc1)c1ccccc1	3	3	-5.1	15
O=C(CN1CCN(S(=O)(=O)c2cc(Br)ccc2Br)CC1)NCc1ccccc1Cl	-18	-33	15	-2
CCCCOC(=O)C1=C(C)NC(=O)NC1c1ccc2c(c1)OCO2 (stereo unspecified)	-7	-12	0.2	-8
CCCOc1ccc(C(=O)CCC(=O)OCC(=O)Nc2cccc(S(N)(=O)=O)c2)cc1	-2	3	0.6	4
CC(C)c1ccc(CN2CCN(S(=O)(=O)c3ccc(Cl)s3)CC2)cc1	-6	-33	-5.4	0
COc1ccccc1C(=O)OCC(=O)NC(=O)NC1CCCCC1	-3	-1	1.8	-4
C[n+]1c2cc(N)ccc2cc2ccc(N)cc21	38	-19	-20	i
O=[N+]([O-])c1ccc(Cl)c(S(=O)(=O)NC2=NCCC2)c1	-1	-6	-7.3	-3
CCOc1ccc(NC(=O)CN2C(=O)NC(C)(c3ccc4c(c3)OCCCO4)C2=O)cc1OCC (stereo unspecified)	0	-3	2.5	-4
Nc1nc(-c2ccccc2)c(CCCOc2ccc([N+](=O)[O-])cc2)c(=O)[nH]1	4	2	3.3	0
Nc1cc2c(cc1Br)-c1ccc(F)cc1C2=O	6	9	-1.0	-8
Cc1ccc(S(=O)(=O)N(C)c2ccc(OCC(=O)OCc3nnc(-c4ccccc4)o3)cc2)cc1	3	13	1.0	-6
C=C1C(=O)OC2C1CCC(C)=C1C(=O)C3OC3(C)C12 (stereo unspecified)	-21	21	0.7	28
CC(=NNC(=O)c1ccncc1)c1cccc(Br)c1	13	14	4.3	-4
CC(=O)N(Cc1ccccc1)C1CC(=O)N(Cc2ccccc2)C1=O (stereo unspecified)	8	14	2.4	1
Cc1ccc(Nc2ncc3c(=O)[nH][nH]c(=O)c3n2)cc1	10	8	2.6	6
O=C(Nc1ccc(OC(F)F)cc1)c1cc(S(=O)(=O)N2CCOCC2)ccc1N1CCCC1	3	-3	0.9	1
Cn1[nH]cc(C=NC(N)=O)c1=O	12	16	-2.7	-11
O=C1C[C@@H]2CCN3C(=O)CCC[C@@H]([C@H]23)[C@@H]1Cc1ccccc1	21	10	-0.1	2
FC(F)(F)c1ccc(-c2cccc3c2C2CC3CCN2)cc1 (stereo unspecified)	10	7	1.4	-6
Cc1ccc(S(=O)(=O)N2CCCCC2)cc1NS(=O)(=O)c1ccc(Cl)c(C(=O)O)c1	4	7	0.5	0
CC(C)NC(=O)C1(N2C(=O)c3ccccc3C2=O)CCCC1	2	5	0.8	-1
COc1ccc(NC(=O)c2oc3ccc(S(=O)(=O)N4CCOCC4)cc3c2C)c(OC)c1	12	4	-1.5	6
Continuation:
SMILES	Ecoli rRNA inh	Ecoli rRNA inh OD600	Ecoli rRNA inh RFP	B2AR ag
CCc1ccc(NC(=O)C(C)OC(=O)CCN2C(=O)C3CC=CCC3C2=O)cc1 (stereo unspecified)	-1	0	-1.6	3
CCc1ccccc1N=Cc1c(C)c(C#N)c2[nH]c3ccccc3n2c1=O	3	2	-0.2	-66
Cc1ccc(NC(=O)CN2C(=O)/C(=C3\SC(=S)N(C4CCS(=O)(=O)C4)C3=O)c3ccccc32)cc1 (stereo unspecified)	2	20	-4.5	49*
O=C(NCCCCCCCCNC(=O)c1cccc2ccccc12)c1cccc2ccccc12	3	20	-4.1	2
COc1ccccc1C=NNc1nc(C)cc(=O)[nH]1	-2	5	-3.4	6
Cc1noc(C)c1COc1ccccc1C(=O)NCCc1ccc(F)cc1	-17	-19	-3.2	-4
CC(C)C(NC(=O)c1ccccc1F)C(=O)NCc1ccc(S(=O)(=O)N2CCOCC2)cc1 (stereo unspecified)	7	8	0.9	-8
O=C(CCOc1ccccc1)Nc1ccc(Cl)c(S(=O)(=O)N2CCOCC2)c1	-5	-12	5.2	0
CC1CCN(C(C)C(=O)Nc2ccc(S(=O)(=O)N3CCCC3)cc2)CC1 (stereo unspecified)	16	7	-0.9	-2
CC(=O)OC1CCC2(C)C(CCC3C2CC(=O)C2(C)C3CC(C(C(C)=O)C(C)=O)C2C(C)=O)C1 (stereo unspecified)	-6	-14	9.6	-6
O=C(Nc1ccc(OC(F)F)cc1)c1cc(S(=O)(=O)N2CCCCC2)ccc1N1CCOCC1	3	10	1.4	1
Cc1nc(N)nc(Cl)c1CCC1OCCO1	7	12	-2.2	-3
COc1cc(C(=O)Nc2cc(S(=O)(=O)N3CCOCC3)ccc2N2CCOCC2)ccc1OC(F)F	-1	-3	-1.5	-2
CN(Cc1cccs1)C(=O)CN1CCN(S(=O)(=O)c2ccc3c(c2)OCCCO3)CC1	-4	-8	1.6	-6
Cc1ccc(S(=O)(=O)N2[C@@H](c3ccc(C(C)(C)C)cc3)C(C(=O)O)=CC[C@H]2c2ccc(Cl)c(Cl)c2)cc1	2	15	-1.3	6
COc1ccc(CNC(=O)C[C@H]2C[C@H](C(=O)N3CCOCC3)[C@@]3(C)c4[nH]c5cc(-c6ccco6)ccc5c4CCN3C2=O)cc1OC	3	4	4.5	5
O=C(O)C1CCCCC1C(=O)Nc1ccc(S(=O)(=O)N2CCOCC2)cc1 (stereo unspecified)	-4	-5	-1.1	10
CN(C)C(=O)CCc1ccc2c3c([nH]c2c1)[C@]1(CCc2ccccc2)[C@@H](C(=O)N2CCCCC2)C[C@H](CC(=O)NCCc2ccccn2)C(=O)N1CC3	-12	-6	2.8	15
O=C(Nc1ccccc1)OCCN1CCOCC1	2	5	-0.7	5
CCN(C[C@H]1N[C@@](Cc2ccccc2)(C(=O)OC)[C@H]2C(=O)N(Cc3ccccc3)C(=O)[C@@H]12)S(=O)(=O)c1ccc(C(F)(F)F)cc1	4	7	-0.9	-8
CC1CCc2c(ccc3ccccc23)C1=O (stereo unspecified)	-12	-39	-6.6	0
CCc1ccc(CN(C)C(=O)C2=CC=CN3CCS(=O)(=O)N=C23)cc1	0	0	-0.4	-6
COc1ccc(CC(=O)Nc2cc(S(=O)(=O)N3CCOCC3)ccc2N2CCOCC2)cc1OC	3	13	-2.5	2
COc1ccc(-c2noc(CCC(=O)N3CCN(c4cccc(F)c4)CC3)n2)cc1	-6	1	0.9	1
Cc1ccccc1NC(=O)COC(=O)c1ccc2c(c1)OCCO2	6	8	-1.3	-5

Next part, overlapping the part above by two compounds.
SMILES	Ecoli rRNA inh	Ecoli rRNA inh OD600	Ecoli rRNA inh RFP	B2AR ag
COc1ccc(-c2noc(CCC(=O)N3CCN(c4cccc(F)c4)CC3)n2)cc1	-6	1	0.9	1
Cc1ccccc1NC(=O)COC(=O)c1ccc2c(c1)OCCO2	6	8	-1.3	-5
CCOC(=O)C1=CN(Cc2ccco2)S(=O)(=O)N(CC)C1c1ccc(C(F)(F)F)cc1 (stereo unspecified)	7	11	-1.2	12
O=C(NCC1CCCO1)c1ccc(S(=O)(=O)Nc2ccc(F)cc2)cc1 (stereo unspecified)	3	5	-1.0	-4
O=C(O)/C(=C/c1ccc(Cl)c([N+](=O)[O-])c1)c1ccc(S(=O)(=O)N2CCCCC2)s1	-17	-29	-9.4	-14
Cc1ccc2c(c1)N(CC(=O)Nc1ccccc1F)C(=O)C(C)O2 (stereo unspecified)	-5	-2	-3.4	0
CC1=CN(S(=O)(=O)c2ccc(C)cc2)C[C@@H]2c3ccccc3N(S(=O)(=O)c3ccc(C)cc3)[C@H]12	6	6	-1.3	-4
CCOC(=O)C1CCCCN1C(=O)c1cc2ccc(OC)cc2c2cc(OC)c(OC)cc12 (stereo unspecified)	7	7	5.9	21
O=C(COC(=O)COc1ccccc1F)NCCc1ccc(F)cc1	10	20	-0.2	-2
CC(=O)N1c2ccc(C)cc2Sc2c1ccc1ccccc21	-10	-38	-6.2	-17
CC(C)(C)NC(=O)C(c1ccc(-c2ccccc2)cc1)N(C[C@H]1CC[C@@H]([C@@H]2CC[C@H](CO)O2)O1)C(=O)c1ccc(C(C)(C)C)cc1 (stereo partly specified)	-5	0	-3.4	0
CCCCn1c(N)c(N(Cc2ccccc2)C(=O)COc2ccccc2F)c(=O)[nH]c1=O	13	14	2.2	-11
COc1cccc2c1C(=O)c1c(O)c3c(c(O)c1C2=O)C[C@@](O)(C(=O)CO)C[C@@H]3OC1CC(N)C(O)C(C)O1 (stereo partly specified)	8	-32	-1.0	-106
CC(C)Cn1cnc2c(SCCc3ccccc3)nc(N)nc21	-10	-23	-1.3	-8
CC(C)(C)S(=O)N1Cc2cc(=O)n(Cc3ccccc3)cc2[C@@H]1CCO (stereo partly specified)	9	14	7.4	-3
O=C(C[C@H]1C/C=C\CC[C@H](Cc2ccc(F)cc2)C(=O)OC[C@H]2CCCN2C1=O)N[C@H](CO)Cc1ccccc1	-51	-76	-11	1
CC(=O)Nc1cc(C)ns1	9	13	1.2	-6
O=C1c2ccccc2[C@@H]2C[C@H](NC34CC5CC(CC(C5)C3)C4)[C@@H](O)CCN12	14	12	0.9	-6
O=C(C1CCN(S(=O)(=O)c2cccc3cccnc23)CC1)N1CCN(Cc2ccccc2)CC1	1	6	2.6	-14
CC(C)O/C(=N/S(=O)(=O)c1ccc(Cl)cc1)c1ccccc1	4	18	-2.9	-1
CCNC(=O)CSc1nnc(-c2cccc(S(=O)(=O)N3CCOCC3)c2)o1	4	10	1.0	-6
COc1cccc(CNC(=O)COC(=O)c2cccc(S(=O)(=O)N3CCCC3)c2)c1	-2	-10	0.4	1
O=C(C(Br)=Cc1ccccc1)c1ccccc1	-57	-75	-16	36
CCOC(=O)C1=CN(Cc2cccc(F)c2)S(=O)(=O)N(C)C1c1ccc2ccccc2c1 (stereo unspecified)	3	7	-1.6	-1

Compound profiles (already shown). Screens in order: Ecoli rRNA inh, Ecoli rRNA inh OD600, Ecoli rRNA inh RFP, B2AR ag
`CC(C)(C)S(=O)N1Cc2cc(=O)n(Cc3ccccc3)cc2[C@@H]1CCO` (stereo partly specified) as listed: 9, 14, 7.4, -3
`O=C(C[C@H]1C/C=C\CC[C@H](Cc2ccc(F)cc2)C(=O)OC[C@H]2CCCN2C1=O)N[C@H](CO)Cc1ccccc1` as listed: -51, -76, -11, 1
`CCOC(=O)C1=CN(Cc2ccco2)S(=O)(=O)N(CC)C1c1ccc(C(F)(F)F)cc1` (stereo unspecified) as listed: 7, 11, -1.2, 12

Some entries already given, limited to B2AR ag, Ecoli rRNA inh RFP and Ecoli rRNA inh OD600.
compound	B2AR ag	Ecoli rRNA inh RFP	Ecoli rRNA inh OD600
COc1ccc(CC(=O)Nc2cc(S(=O)(=O)N3CCOCC3)ccc2N2CCOCC2)cc1OC	2	-2.5	13
COc1ccc(-c2noc(CCC(=O)N3CCN(c4cccc(F)c4)CC3)n2)cc1	1	0.9	1
Cc1ccccc1NC(=O)COC(=O)c1ccc2c(c1)OCCO2	-5	-1.3	8
CCOC(=O)C1=CN(Cc2ccco2)S(=O)(=O)N(CC)C1c1ccc(C(F)(F)F)cc1 (stereo unspecified)	12	-1.2	11
O=C(NCC1CCCO1)c1ccc(S(=O)(=O)Nc2ccc(F)cc2)cc1 (stereo unspecified)	-4	-1.0	5
O=C(O)/C(=C/c1ccc(Cl)c([N+](=O)[O-])c1)c1ccc(S(=O)(=O)N2CCCCC2)s1	-14	-9.4	-29
